# CSC inhib: blocks cancer stem cells | inhibition, % at 7.5 µM | cancer stem cell-like cells viability, luminescence | AID 2717 | 1.1% of 300,000 active;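 active = mean at 75% or more and at least half the replicates too; tested in HMLE shEcad cells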;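 also: 0% = median of negative and 100% = median of positive control wells; the first replicate is given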
# HIV Env fusion: HIV envelope-mediated fusion inhibition; 1.1% of 360,000 active; inhibition, % at 12.3 µM; HeLa-JRFL Env/CEM21 cell fusion, luciferase;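 active = mean replicate inhibition score of at least 50 and every replicate individually at or above 50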;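 also: 0% = plate neutral controls and 100% = maraviroc near 300 nM; one replicate is shown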
# PABP polyA inh: blocks human PABP binding to poly(A) RNA; P11940; fluorescence polarization; inhibition, % at 35 µM; 1% of 290,000 active;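 active = 50% or more with normal probe brightness, or confirmed in later tests; about a fifth of its hits are not listed in these tables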;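 also: calls also rest on retests at 20 µM and on dose response follow-up; controls were probe without protein and protein plus probe with vehicle; some compounds called inactive have numbers as strong as hits; many hits fall short of the cut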
# Target sequence (P11940 whole entry, looked up): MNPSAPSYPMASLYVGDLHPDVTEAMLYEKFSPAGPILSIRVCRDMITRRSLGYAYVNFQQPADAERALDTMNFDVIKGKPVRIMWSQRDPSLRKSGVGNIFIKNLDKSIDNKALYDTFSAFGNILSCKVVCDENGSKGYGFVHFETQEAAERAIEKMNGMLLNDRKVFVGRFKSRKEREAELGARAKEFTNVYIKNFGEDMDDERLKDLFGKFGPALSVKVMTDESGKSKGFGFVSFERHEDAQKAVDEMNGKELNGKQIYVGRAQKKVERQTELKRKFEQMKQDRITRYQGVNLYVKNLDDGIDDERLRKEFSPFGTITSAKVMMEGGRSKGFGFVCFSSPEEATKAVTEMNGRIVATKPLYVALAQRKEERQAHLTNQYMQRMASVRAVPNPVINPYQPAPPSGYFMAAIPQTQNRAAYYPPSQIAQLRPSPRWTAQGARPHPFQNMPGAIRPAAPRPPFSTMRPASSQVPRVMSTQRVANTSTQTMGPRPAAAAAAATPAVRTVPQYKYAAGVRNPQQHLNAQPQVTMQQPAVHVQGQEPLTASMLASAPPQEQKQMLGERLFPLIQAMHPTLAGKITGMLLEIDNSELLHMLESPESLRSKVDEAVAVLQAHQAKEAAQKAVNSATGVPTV
# MT1-MMP act inh: MT1-MMP (human) activation inhibition; P50281; HT1080 RFP-PRO-GFP cells, GFP/RFP ratio fluorescence, overnight; percent of plate control window, DMSO zero; GFP/RFP ratio change, % at 20 µM; 0.061% of 360,000 active; AID 651647;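 active = GFP/RFP ratio change of at least 30% with cell ATP level not reduced by more than half and red fluorescence within 50% of control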; also: strong numbers were not always called active
#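 Read-out: GFP/RFP fluorescence ratio; Test system: RFP-PRO-GFP reporter HT1080 cells; Compound dosing: single-point 20 µM compound, 1% DMSO; Times: overnight compound exposure at 37 °C.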
# eIF4H inh: inhibitors of RNA binding by human eIF4H | eIF4H fluorescence polarization binding assay | Q15056 | 0.94% of 290,000 active | inhibition, % at 35 µM;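 active = 50% or more with normal probe brightness, or confirmed in later tests; about a fifth of its hits are not listed in these tables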;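 also: calls also rest on retests at 20 µM and on dose response follow-up; 0% = protein and probe with vehicle and 100% = probe without protein; strong numbers were not always called active; many hits fall short of the cut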
# Rce1 inh: inhibitors of yeast Ras-converting enzyme. AID 2563. Q03530. 0.27% of 290,000 active. yeast membranes, quenched prenylated peptide cleavage fluorescence. calls only;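 active = fall in fluorescence gain of 50% or more versus controls, with final raw signal at or below 3038400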;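 also: plate controls were neutral control wells for no effect and wells lacking membranes for full effect; tested at 10 µM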
# Target sequence (Q03530 whole entry, looked up): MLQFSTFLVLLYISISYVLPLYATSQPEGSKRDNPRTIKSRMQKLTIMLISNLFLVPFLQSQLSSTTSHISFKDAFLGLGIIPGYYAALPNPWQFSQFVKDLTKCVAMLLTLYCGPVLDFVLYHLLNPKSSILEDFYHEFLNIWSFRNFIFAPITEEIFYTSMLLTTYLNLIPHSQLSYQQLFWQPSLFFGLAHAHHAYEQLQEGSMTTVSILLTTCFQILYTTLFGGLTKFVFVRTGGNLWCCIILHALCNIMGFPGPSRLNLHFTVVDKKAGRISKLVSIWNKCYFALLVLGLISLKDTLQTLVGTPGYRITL
# Yeast UUG start: alters start codon recognition fidelity in yeast; S. cerevisiae UUG-firefly luciferase reporter, luminescence/redox ratio; activity score, % at 18.7 µM; 0.13% of 350,000 active;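 active = replicate mean at a twofold rise or more, about +100% in these data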;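 also: firefly luciferase made from a UUG start codon reports start codon fidelity; reporter light over untreated wells divided by growth signal over untreated wells; some hits fall short of that in this replicate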
# eIF4H inh retest: recorded beside eIF4H inh, whose call it bears; inhibition, %; compound at 20 µM; confirmation average;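 mean of two retest wells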
# PABP polyA inh retest: recorded beside PABP polyA inh, whose call it bears; inhibition, %; compound at 20 µM; confirmation repeats;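 mean of two retest wells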
# MT1-MMP act inh RFP: second read-out of MT1-MMP act inh, no call of its own (marks repeat the call); RFP signal change, %; measured here: RFP expression control read;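 0 = vehicle wells; hits needed this value within 50% of zero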
# An asterisk follows results filed as active; i = inactive; · = not tested or not shown. Compounds as they come; any-hit rate near 3%.
SMILES,CSC inhib,HIV Env fusion,PABP polyA inh,MT1-MMP act inh,MT1-MMP act inh RFP,eIF4H inh,Rce1 inh,Yeast UUG start,others
N=C1/C(=C\c2ccc(OC(=O)c3ccc(F)cc3)cc2)C(=O)N=C2SC(N3CCCC3)=NN12,-3.6,-18.6,4.5,1.9,2.0,16.3,i,-3.0,
Cc1c(NC(=O)C2CC(c3cccc(Br)c3)=NO2)c(=O)n(-c2ccccc2)n1C (stereo unspecified),-3.6,10.5,-5.0,1.9,-0.3,-1.7,i,0.3,
CCN(CC)C(=O)C1CC(=O)OC1(C)C (stereo unspecified),-2.7,·,-0.5,3.5,1.6,-4.1,i,-12.5,
CN(C)/C=N/c1[nH]ncc1C#N,-8.5,3.7,-6.6,4.8,3.5,-3.2,i,·,
COc1cc(OC)nc(NC(=O)NS(=O)(=O)c2ccc(F)cc2)n1,4.8,6.9,-13.2,-0.6,-0.3,-15.4,i,·,
COc1cc(/C=N\NC(=O)CNC(=O)C(c2ccccc2)c2ccccc2)ccc1O,-0.7,-6.6,0.7,2.9,0.5,-6.9,i,·,
O=C(NC1CCCC1)C(c1cccs1)N(Cc1ccco1)C(=O)c1csnn1 (stereo unspecified),-10.6,-48.3,2.1,-2.6,-4.4,0.1,i,-9.0,
COC/C=C/C1=CC2=CC(=O)C(C)(OC(=O)c3cnc4ccccc4n3)C(=O)C2=CN1C1CC1 (stereo unspecified),15.1,-33.0,·,-2.8,7.4,·,i,7.6,
C=CCNc1sc(C(=O)c2ccccc2)c(N)c1C#N,-10.0,·,0.9,4.2,3.8,7.7,i,·,
Cc1ccc(Nc2nc(C)c3c(n2)CC(C)CC3=O)c(C)c1 (stereo unspecified),-3.9,12.0,-1.6,-1.5,-2.8,-6.9,i,·,
COc1ccc(OCc2cccc(C(=O)NN)c2)cc1,2.7,10.6,-7.5,1.3,4.1,-8.4,i,-20.7,
CCOc1ccccc1C(=O)N(Cc1ccc(C)o1)C1CCS(=O)(=O)C1 (stereo unspecified),2.6,4.9,10.9,3.2,6.4,1.1,i,-8.9,
COC(=O)c1ccccc1NC(=O)CN1CCN(c2ccccn2)CC1,1.6,15.0,1.9,2.7,-0.5,-0.6,i,·,
O=C(Nc1cc([N+](=O)[O-])ccc1Cl)c1ccc2c(c1)OCO2,-2.3,0.1,-19.8,5.8,6.5,-6.9,i,·,
CC(=O)Nc1ccc(NC(=O)c2nc(S(=O)(=O)Cc3ccccc3)ncc2Cl)cc1,1.4,-7.9,2.6,1.9,2.4,-9.2,i,6.8,
CC(=O)Nc1ccc(OCC(O)Cn2nc(C)c(Br)c2C)cc1 (stereo unspecified),-7.6,·,-9.2,4.5,11.8,-5.0,i,7.6,
CC(C)C[C@@H]1CN=C(N)N1C[C@@H]1CCCN1C[C@H](C)N1C[C@@H](Cc2ccccc2)N(CCCC2CCCC2)C1=N,·,7.5,·,4.1,2.4,·,·,-13.5,
O=C(CSc1nc2[nH]ncc2c(=O)n1-c1ccccc1)N1CCCCCC1,-10.6,·,4.4,·,·,7.5,i,·,
Cc1ccc2nc(NCCCNC(=O)c3cnccn3)c(C#N)cc2c1,-8.7,-31.9,17.3,-7.4,-3.4,-3.4,i,-12.6,
C[C@H](NC(=O)C1CCN(S(=O)(=O)c2ccccc2)CC1)C(=O)NCc1cccnc1,·,-8.6,·,2.4,0.9,·,·,2.2,
Cn1c(=O)oc2cc(S(=O)(=O)N3CCC(C(=O)NCC4COc5ccccc5O4)CC3)ccc21 (stereo unspecified),-2.9,20.7,-2.5,2.9,-6.1,-5.4,·,-19.6,
CC(=O)c1ccc(NC(=O)c2cc(C)no2)cc1,-6.5,11.1,3.5,-1.2,1.7,-1.1,i,·,
CCOC(=O)N1CCN(C(=O)c2ccc(C)c(S(=O)(=O)N3CCCCC3)c2)CC1,7.2,·,-1.1,8.8,1.3,1.1,i,-5.1,
Cc1ccc(S(=O)(=O)N2CCC(C(=O)Nc3nnc(C4CCCC4)s3)CC2)cc1,-16.4,·,-20.5,0.4,-0.2,-7.9,i,-10.2,
O=C(Nc1ccnc(-c2cccnc2)n1)c1cccs1,-0.9,-1.7,-8.7,1.1,-2.8,-4.4,i,-11.1,
O=C(Nc1nc(-c2ccc(F)cc2)cs1)C1CCN(C(=O)c2ccc(F)cc2)CC1,18.9,-6.2,·,8.5,-27.6,·,i,-11.8,
Cc1cc(C)nc(SC2CCOC2=O)n1 (stereo unspecified),-18.3,·,4.3,1.7,6.6,-9.2,i,-11.7,
O=C(NNC(=O)c1ccncc1)Nc1ccc(N=Nc2ccccc2)cc1,·,-25.6,·,13.1,-0.2,·,·,-20.7,
Cc1ccc(S(=O)(=O)c2cn(Cc3ccc(F)cc3)c3cc4c(cc3c2=O)OCO4)cc1,-5.3,-2.4,-18.7,1.6,3.0,-2.9,i,·,
CC(=O)c1cc(C#N)c(Oc2ccccc2)nc1C,-16.0,·,·,-0.9,1.5,·,·,-3.4,

# Sorted by heavy-atom count (high to low): 3 of the compounds above
SMILES,CSC inhib,HIV Env fusion,PABP polyA inh,MT1-MMP act inh,MT1-MMP act inh RFP,eIF4H inh,Rce1 inh,Yeast UUG start,others
Cc1ccc(S(=O)(=O)N2CCC(C(=O)Nc3nnc(C4CCCC4)s3)CC2)cc1,-16.4,·,-20.5,0.4,-0.2,-7.9,i,-10.2,
CC(=O)c1ccc(NC(=O)c2cc(C)no2)cc1,-6.5,11.1,3.5,-1.2,1.7,-1.1,i,·,
Cc1cc(C)nc(SC2CCOC2=O)n1 (stereo unspecified),-18.3,·,4.3,1.7,6.6,-9.2,i,-11.7,

# The listing picks up with the 3 entries that preceded the break.
SMILES,CSC inhib,HIV Env fusion,PABP polyA inh,MT1-MMP act inh,MT1-MMP act inh RFP,eIF4H inh,Rce1 inh,Yeast UUG start,others
O=C(NNC(=O)c1ccncc1)Nc1ccc(N=Nc2ccccc2)cc1,·,-25.6,·,13.1,-0.2,·,·,-20.7,
Cc1ccc(S(=O)(=O)c2cn(Cc3ccc(F)cc3)c3cc4c(cc3c2=O)OCO4)cc1,-5.3,-2.4,-18.7,1.6,3.0,-2.9,i,·,
CC(=O)c1cc(C#N)c(Oc2ccccc2)nc1C,-16.0,·,·,-0.9,1.5,·,·,-3.4,
CC(C)CC1C(=O)N(Cc2cn(CCC3OCCCO3)nn2)CCS(=O)(=O)N1Cc1ccc(-c2ccc(F)cc2)cc1 (stereo unspecified),·,11.6,·,0.2,-0.5,·,·,-1.0,
O=C(Cn1cc(COc2ccc(-n3cccc3)cc2)nn1)NS(=O)(=O)c1ccccc1C(F)(F)F,·,-4.4,·,-2.0,7.3,·,·,5.1,
Cc1[nH]c(-c2ccc3c(c2)OCO3)nc1C(=O)O,8.2,-0.3,-3.2,-0.9,5.7,-4.7,i,-8.9,
OCCCNC(=S)Nc1ccc(Oc2ccccc2)cc1,4.6,-4.3,13.9,1.8,1.9,-4.0,i,-16.6,
CC1CN(C(=O)c2cccc(S(=O)(=O)N3CCN(c4ccc(F)cc4)CC3)c2)CC(C)O1 (stereo unspecified),·,·,-13.6,-0.2,-9.3,-10.4,i,-8.7,
COc1ccc(S(=O)(=O)N[C@@H](Cc2ccc(Cl)cc2)C(=O)N2CC[C@@]3(O)CCCC[C@H]3C2)cc1,-5.8,·,4.1,-2.8,-3.2,-1.3,i,25.8,
O=C1CCc2cc(S(=O)(=O)NCCC(=O)NC3CCCCC3)ccc2N1,-19.9,-3.0,0.4,-2.3,3.1,-2.8,i,4.2,
N/C(=N\NC(=O)c1cccs1)c1cc2ccccc2oc1=O,-9.8,15.2,-1.7,4.1,-0.4,0.1,i,-11.8,
Cc1ccc(C(=O)N(CC#N)CC#N)cc1C,-7.2,-8.8,3.4,-1.4,8.5,-4.1,·,·,
CC(Cc1c[nH]c2ccccc12)NC(=O)C1CCCNC1=O (stereo unspecified),-9.4,·,9.3,2.6,3.2,0.7,i,-7.5,
CCCCN1C(=O)C(C(=O)OCc2ccccc2)CC2=C1CCCC2=O (stereo unspecified),·,-5.4,·,5.2,0.8,·,·,-7.4,
Cn1c(C(=O)NC2CC2)cc(=O)n(C)c1=O,-9.8,8.0,-10.6,0.9,2.8,-5.7,i,·,
O=C(O)CCN1C(=O)NC2(CCCC2)C1=O,8.7,-105.4,11.1,-1.8,-5.0,6.2,i,-5.9,
Cc1ccc(CNC(=O)C(=O)NCC2OCCN2S(=O)(=O)c2ccc(C)cc2)cc1 (stereo unspecified),8.0,13.8,-7.6,3.3,-10.7,1.5,i,-9.3,
CCCCCc1c2c(cc(O)c1C(=O)O)OC(=O)c1c(cc(OC)cc1C(=O)CCCC)O2,-0.5,·,25.2*,2.6,5.0,61.8,i,-18.8,eIF4H inh retest=43.1;PABP polyA inh retest=53.0*

# Three records drawn at random from the list so far:
SMILES,CSC inhib,HIV Env fusion,PABP polyA inh,MT1-MMP act inh,MT1-MMP act inh RFP,eIF4H inh,Rce1 inh,Yeast UUG start,others
N/C(=N\NC(=O)c1cccs1)c1cc2ccccc2oc1=O,-9.8,15.2,-1.7,4.1,-0.4,0.1,i,-11.8,
CC1CN(C(=O)c2cccc(S(=O)(=O)N3CCN(c4ccc(F)cc4)CC3)c2)CC(C)O1 (stereo unspecified),·,·,-13.6,-0.2,-9.3,-10.4,i,-8.7,
O=C1CCc2cc(S(=O)(=O)NCCC(=O)NC3CCCCC3)ccc2N1,-19.9,-3.0,0.4,-2.3,3.1,-2.8,i,4.2,

# Remaining list, next part
SMILES,CSC inhib,HIV Env fusion,PABP polyA inh,MT1-MMP act inh,MT1-MMP act inh RFP,eIF4H inh,Rce1 inh,Yeast UUG start,others
CC(=O)Oc1ccc2nc(-c3cccs3)oc(=O)c2c1,-13.6,-6.8,0.9,1.1,1.2,-3.2,i,·,
COc1ccc(CC(=O)Nc2cc(C)c3c(=O)oc4ccccc4c3n2)cc1,-4.1,-16.6,3.0,-3.7,-8.1,-4.3,i,-20.2,
Cc1c(NC(=O)c2ccc(-c3cccc([N+](=O)[O-])c3)o2)c(=O)n(-c2ccccc2)n1C,2.4,-16.1,-5.8,-0.3,3.1,0.3,i,·,
COc1ccccc1CNC(=O)C1(c2ccc(Cl)cc2)CC1,-5.0,-3.8,8.9,1.1,2.0,2.9,i,·,
CNC(=O)OCCSCCS(=O)(=O)c1ccc(Cl)cc1,-0.8,-10.0,-0.9,0.2,6.8,-6.2,i,·,
CCS(=O)(=O)N1CCN(C(=O)c2ccc(-c3ccccc3)cc2)CC1,-12.9,·,6.3,9.1,-3.3,11.2,i,-7.7,
Cc1ccc(CNC(=O)[C@@H](NC(=O)C2CCN(C(=O)[C@@H]3CCCN3)CC2)C(C)C)cc1,2.6,·,-11.2,2.1,5.8,-6.3,i,-12.3,
O=C(CCC(=O)N1CCN(S(=O)(=O)c2ccccc2)CC1)c1ccc(Br)cc1,4.6,9.3,·,-4.2,-0.7,·,·,-15.6,
CN(C)C(=O)N1CCCC(C(=O)NCc2ccccc2)C1 (stereo unspecified),-16.7,·,-0.1,-0.4,5.2,-3.3,i,-19.2,
CCN(CC)CCNC(=O)c1ccc(NC(=O)c2c(F)cccc2Cl)cc1,-8.1,12.2,-1.2,3.1,6.3,-11.4,i,·,
COC(=O)C1=C(C)N(C)C(=O)NC1c1ccc(O)c(Cl)c1 (stereo unspecified),-8.2,-1.7,-7.8,-1.7,0.2,-10.2,i,·,
O=C(C1CCCN(S(=O)(=O)c2ccc(Br)cc2)C1)N1CCOCC1 (stereo unspecified),-13.5,52.4,11.2,0.0,-1.5,6.7,i,-8.3,
OCc1ccc(-c2cccc3nccn23)cc1,·,-91.5,·,1.0,7.1,·,·,-15.5,
Cc1ccc(Cn2cc(SCC(N)=O)c3ccccc32)cc1,-4.8,-1.0,-7.1,-0.2,-2.0,-6.2,i,1.9,
COc1ccc(OC)c(CN2CCCCCC2)c1,-0.8,-197.1,-1.2,-2.9,0.7,1.4,i,-0.3,
COc1ccc(S(=O)(=O)NCc2ccc(C(=O)N3CCN(c4ccccn4)CC3)cc2)cc1,·,·,-12.6,-2.6,-9.2,-14.9,i,-7.1,
